OX1R antagonist: antagonists of human orexin 1 receptor; CHO/OX1R cells, Fluo-8 calcium fluorescence, orexin A; inhibition, % at 5 µM; 330,000 compounds, 0.43% hits;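 active = inhibition above its plate's threshold, mean inhibition of all tested compounds on the plate plus 3 SD, cut at about 37% in these data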;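 note: 0% = orexin A challenge wells and 100% = SB-334867-A antagonist wells; not every result past the cut was called active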
Target sequence (O43613 whole entry, looked up): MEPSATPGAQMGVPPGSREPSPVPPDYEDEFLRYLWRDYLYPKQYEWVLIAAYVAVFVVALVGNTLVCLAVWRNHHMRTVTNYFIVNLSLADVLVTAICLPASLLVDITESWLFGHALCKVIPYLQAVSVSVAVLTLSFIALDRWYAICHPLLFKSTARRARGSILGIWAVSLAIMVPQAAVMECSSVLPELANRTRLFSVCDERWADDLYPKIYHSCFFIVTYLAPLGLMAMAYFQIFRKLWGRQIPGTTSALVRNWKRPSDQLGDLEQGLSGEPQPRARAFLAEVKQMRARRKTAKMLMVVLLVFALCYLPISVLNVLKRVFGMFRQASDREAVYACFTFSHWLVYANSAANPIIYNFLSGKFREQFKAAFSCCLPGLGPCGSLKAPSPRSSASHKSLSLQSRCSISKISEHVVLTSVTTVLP
* = called active by the depositor.

molecule,OX1R antagonist
O=C(Nc1cccc(Cl)c1)c1cc([N+](=O)[O-])ccc1N1CCN(CCO)CC1,-13
COCCn1c(SCC(=O)N(C)c2c(N)n(Cc3ccccc3)c(=O)[nH]c2=O)nnc1-c1cccc(C)c1,-19
COc1ccc(CN(C)C(=O)c2cc(S(=O)(=O)N3CCCCCC3)ccc2OC)cc1OC,-24
C[C@]1(C(=O)NCCCNc2ncc(C(F)(F)F)cc2Cl)C=C[C@@H](Cc2ccccc2)N1C(=O)c1ccccc1,-47
O=C(/C=C/c1cccs1)c1cc(Br)ccc1OC(=O)N1CCOCC1,-35
Cc1ccc(N2CC(C(=O)Nc3nnc(SCC(=O)N4CCOCC4)s3)CC2=O)cc1 (configuration not stated),-7
CC(=O)Nc1ccc(S(=O)(=O)N2c3ccc(F)cc3CCC2C)cc1 (configuration not stated),-19
CCc1ccc2oc(=O)cc(CN3CCOCC3)c2c1,-5
COc1ccc(S(=O)(=O)N2CCN(C)CC2)cc1C,-16
O=C1NC(Cc2ccccc2)C(=O)N1CC(=O)N1CCCc2ccccc21 (configuration not stated),-20
Cc1ccn2cc(-c3cccc(S(=O)(=O)N4CCCC4)c3)nc2c1,-37
COc1ccc(C2C3=C(CC(C)(C)CC3=O)Nc3c2c(=O)n(C)c(=O)n3C)cc1OC (configuration not stated),-1
CC(=O)c1ccc(NC(=O)COC(=O)c2ccccc2Sc2ccccc2C#N)cc1,-7
Cc1nn(C)c(C)c1S(=O)(=O)N1CCc2ccccc21,0
Cc1csc(NC(=O)CCc2c(C)nc3cc(-c4cccc(F)c4)nn3c2C)n1,-19
COc1ccc(F)cc1S(=O)(=O)N1CCCCC1,-11
c1ccc(-c2nn3c(-c4ccccc4)nnc3s2)cc1,-17
O=C(CN(CCc1ccccc1)S(=O)(=O)c1ccc(Cl)cc1)N/N=C/c1ccccc1C(=O)O,-21
COc1cc2c(cc1OC)C(C(=O)NCC1COc3ccccc3O1)C(c1cccnc1)N(C)C2=O (configuration not stated),-10
CCOC(=O)c1c[nH]c2c(C(F)(F)F)cccc2c1=O,-4
CCOC(=O)Cn1c(CN(C)Cc2ccccc2)nc2c1c(=O)n(C)c(=O)n2C,-17
CCN(CC)c1cc(C)c2cc(NC(=O)c3ccc(Br)o3)ccc2n1,-29
O=C(c1c[nH]c(C(=O)C(Cl)(Cl)Cl)c1)c1ccc(F)cc1F,-4
OCCNc1nc(Nc2ccccc2OC(F)(F)F)nc(N2CCCC2)n1,-19
COc1ccc(NC(=O)c2ccc(-c3nn(C)c(=O)c4ccccc34)cc2)cc1C(N)=O,-2

Structural class, the entries above with an aryl methoxy group.
molecule,OX1R antagonist
COc1ccc(CN(C)C(=O)c2cc(S(=O)(=O)N3CCCCCC3)ccc2OC)cc1OC,-24
COc1ccc(S(=O)(=O)N2CCN(C)CC2)cc1C,-16
COc1ccc(C2C3=C(CC(C)(C)CC3=O)Nc3c2c(=O)n(C)c(=O)n3C)cc1OC (configuration not stated),-1
COc1ccc(F)cc1S(=O)(=O)N1CCCCC1,-11
COc1cc2c(cc1OC)C(C(=O)NCC1COc3ccccc3O1)C(c1cccnc1)N(C)C2=O (configuration not stated),-10
COc1ccc(NC(=O)c2ccc(-c3nn(C)c(=O)c4ccccc34)cc2)cc1C(N)=O,-2

A second format for two compounds above.
OX1R antagonist	smiles
-29	CCN(CC)c1cc(C)c2cc(NC(=O)c3ccc(Br)o3)ccc2n1
-19	Cc1csc(NC(=O)CCc2c(C)nc3cc(-c4cccc(F)c4)nn3c2C)n1

Returning to the listing with the 2 entries that preceded the break.
molecule,OX1R antagonist
OCCNc1nc(Nc2ccccc2OC(F)(F)F)nc(N2CCCC2)n1,-19
COc1ccc(NC(=O)c2ccc(-c3nn(C)c(=O)c4ccccc34)cc2)cc1C(N)=O,-2
CCOC(=O)c1c(N)sc(C(=O)Nc2ccccc2F)c1C,-10
c1ccc(CN2CCC(=NNc3nc4ccccc4[nH]3)CC2)cc1,-40
CC(=O)N1CCN(C(=O)c2cc(S(=O)(=O)N3CCCCC3)ccc2Cl)CC1,-9
O=C(CN1C(=O)C2CCCCC2C1=O)Nc1cccc([N+](=O)[O-])c1 (configuration not stated),-19
OCCN1CCN(c2ncnc3sc4c(c23)CCCC4)CC1,-47
CC(=O)c1cccc(NC(=O)/C(=C\c2cccnc2)NC(=O)c2ccc(C)cc2)c1,-24
Cc1cc(C)n(CCC(=O)N2CCN(S(=O)(=O)c3ccc(C)c(C)c3)CC2)n1,-34
CCCCOCCCNCC(=O)Nc1ccc(S(N)(=O)=O)cc1,-10
COc1ccccc1C1CCN(Cc2cccc(C(=O)N3CCC(O)CC3)c2)CC1,-14
CC(C)(C)c1ccc(OCCC(=O)OCC(=O)NC2CCCCC2)cc1,10
CCOC(=O)c1cnc2nc(N3CCOCC3)nn2c1N,-13
O=C(c1ccc(Cl)cc1)C1CCCN(Cc2cnn(-c3ccccc3)c2)C1 (configuration not stated),-30
COc1ccccc1N1CCN(C(=O)c2ccc(S(=O)(=O)N3CCCCCC3)cc2)CC1,-5
Cc1nc2cc(C(=O)OCC(=O)Nc3ccc(C#N)cc3)ccc2n1-c1ccccc1,-14
CCOc1ccccc1N1CC(C(=O)Nc2cc(Cl)ccc2C)CC1=O (configuration not stated),-16
CCC(=O)c1ccc(OCC(O)CN2CCN(C(c3ccccc3)c3ccccc3)CC2)cc1 (configuration not stated),-32
CCOC(=O)Cc1csc(NC(=O)c2c(-c3c(F)cccc3Cl)noc2C)n1,-14
C/C(=N\O)c1oc2ccc3c(C)cc(=O)oc3c2c1C,-3
CN(C)c1ccnc(Oc2ccc(F)cc2)c1C#N,11
COc1ccc(S(=O)(=O)N2CCOCC2)cc1NC(=O)COC(=O)CCOc1ccc(C)cc1,-20
COc1ccc(C2=NCCn3nc4cc([N+](=O)[O-])ccc4c32)cc1,-4
O=S1(=O)CCC(SCc2nc3sccn3c2Br)C1 (configuration not stated),-2
O=C(NNC(=O)c1ccccc1-n1cccc1)c1cccc(Cl)c1,-5
CCS(=O)(=O)N1CCC(N2CCC(C)CC2)CC1,-9
Cc1ccc(-n2c(SCC(=O)NCC3CCCO3)nc3ccccc3c2=O)cc1C (configuration not stated),-33

An excerpt from above in order of the OX1R antagonist value, lowest first.
molecule,OX1R antagonist
O=C(CN1C(=O)C2CCCCC2C1=O)Nc1cccc([N+](=O)[O-])c1 (configuration not stated),-19
CCOC(=O)Cc1csc(NC(=O)c2c(-c3c(F)cccc3Cl)noc2C)n1,-14
CCOC(=O)c1cnc2nc(N3CCOCC3)nn2c1N,-13
C/C(=N\O)c1oc2ccc3c(C)cc(=O)oc3c2c1C,-3

Remaining list, next part:
c1ccc(CSc2nnc(Cc3ccccn3)o2)cc1
  OX1R antagonist: -33

Cc1csc(NC(=O)CSc2nnc3c4ccccc4nc(C(C)(C)C)n23)n1
  OX1R antagonist: -10

O=C1C=C(c2cc3ccccc3s2)CCC1
  OX1R antagonist: -20

CC1=[N+]([O-])C(C)(C)C(C)N(O)C1=O (configuration not stated)
  OX1R antagonist: -3

CCOC(=O)C1CCN(C(=O)c2ccc(SC)cc2OC)CC1
  OX1R antagonist: -19

Cc1[nH]c(-c2ccco2)nc1C(=O)O
  OX1R antagonist: 12

Cc1nc2ccccc2[nH]c1=O
  OX1R antagonist: 5

CCN(CC)CCCn1c2c(c(SCC(=O)Nc3cccc(C(C)=O)c3)nc1=O)CCC2
  OX1R antagonist: -8

CNC(=O)c1[nH]nc2c1CCc1cc(OC)ccc1-2
  OX1R antagonist: -23

CCCc1c(C(=O)O)cnn1-c1ccc(Cl)cc1
  OX1R antagonist: -3

CN(C)c1ccc(C(CNC(=O)c2ccco2)N2CCCC2)cc1 (configuration not stated)
  OX1R antagonist: 1

C[N+](C)(C)c1ccc(/C=N/Nc2nc(Cl)c(C#N)c(Cl)c2Cl)cc1
  OX1R antagonist: 0

CCN(CC)CCNC(=O)Cc1c(C(=O)O)n(C)c2ccccc12
  OX1R antagonist: -16

CCCC(=O)Nc1cc(-c2nnc(OC)c3ccccc23)ccc1N1CCOCC1
  OX1R antagonist: -18

NC1=NC(=O)/C(=C/c2ccsc2)S1
  OX1R antagonist: -12

O=C(NC(=S)N1CCCCC1c1cccnc1)c1ccc(Br)cc1 (configuration not stated)
  OX1R antagonist: -35

Cc1ccnc(NC(=O)CCC(=O)N(CC(=O)NC(C)(C)C)c2ccc3c(c2)OCCO3)c1
  OX1R antagonist: -39

COc1ccc(N2CCN(C3CCCN(C(=O)CN4CCCCC4=O)C3)CC2)cc1 (configuration not stated)
  OX1R antagonist: -9

[O-][n+]1onc2c1C(N1CCOCC1)CCC2N1CCOCC1 (configuration not stated)
  OX1R antagonist: -25

CCc1ccc(NC(=O)CSc2nnc(C3CC3)n2CC2CCCO2)cc1 (configuration not stated)
  OX1R antagonist: -19

Cc1c(NS(=O)(=O)c2cc(NC(=O)CCN3CCCC(C)C3)ccc2Cl)c(=O)n(-c2ccccc2)n1C (configuration not stated)
  OX1R antagonist: -13

CC(NC(=O)c1ccco1)c1cccc2ccccc12 (configuration not stated)
  OX1R antagonist: -6

CCc1cc(=O)oc2c(C)c(OCC(=O)NCCCN3CCOCC3)ccc12
  OX1R antagonist: -13

O=C(Nc1nc2n(n1)C(c1ccc(F)cc1)CC(c1ccccc1)N2)c1ccco1 (configuration not stated)
  OX1R antagonist: -19

COCCNC(=O)c1cc2nc(-c3ccc(F)cc3)cc(C(F)(F)F)n2n1
  OX1R antagonist: -14

Clc1ccc(-c2n[nH]c3c2CCCC3)cc1
  OX1R antagonist: -15

COc1ccccc1OCC(=O)NCC1CCCN(C(=O)c2ccccc2SC)C1 (configuration not stated)
  OX1R antagonist: -21

O=C(NC(Cc1ccccc1)C(=O)O)/C(=C\c1ccco1)NC(=O)c1ccco1 (configuration not stated)
  OX1R antagonist: 1

OCc1c(Cl)nc2ccccn12
  OX1R antagonist: -7

COc1ccc(OCC(NS(=O)(=O)c2ccc(-n3cnnn3)cc2)C(C)C)cc1 (configuration not stated)
  OX1R antagonist: 1

COc1ccc(NC(=O)CSCC(=O)Nc2cccc3ncccc23)cc1
  OX1R antagonist: -9

NS(=O)(=O)c1ccc(NC(=O)NC2CCCCC2)cc1
  OX1R antagonist: -7

Cc1nc2nc(COc3ccccc3)nn2c(C)c1Cl
  OX1R antagonist: -14

O=C(CSc1ccsc1[N+](=O)[O-])NCCc1ccccc1
  OX1R antagonist: -4

Cc1ccc(CCNC(=O)CCn2ccc3cc(S(=O)(=O)N4CCCC4)ccc32)cc1
  OX1R antagonist: -25

An excerpt, and most or all hits are left out here.
